# Beta cell apopt – blocks beta cell apoptosis; protection from apoptosis, % (concentration not given with the values); hit rate 0.8% among 300,000; INS-1E cytokine-induced death, ATP luminescence, 48 h; percent of positive-control rescue, neutral wells zero;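 active means all replicates at 75% or more, or half of them and the mean; inconclusive means half reach 75% but not the mean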;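 further: 0% = cytokine-treated negative control wells and 100% = positive control rescue; higher means more ATP so stronger rescue from cytokine killing; wells of about 40 µL received 100 nL stock; the first replicate is given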
# ALR inh – human ALR oxidase inhibition via reduced H2O2; purified ALR, DTT oxidation, H2O2 HRP-luminol luminescence; inhibition, % (concentration not given with the values); hit rate 3.8% among 290,000; AID 485317;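 active means mean and each replicate at 75% or more; inconclusive means only one of the two met; inactive means neither met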;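 further: stock transfer was 7.5 nL into about 7.5 µL; 0% = neutral wells and 100% = wells with inactivated enzyme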
# Target sequence (P55789 whole entry, looked up): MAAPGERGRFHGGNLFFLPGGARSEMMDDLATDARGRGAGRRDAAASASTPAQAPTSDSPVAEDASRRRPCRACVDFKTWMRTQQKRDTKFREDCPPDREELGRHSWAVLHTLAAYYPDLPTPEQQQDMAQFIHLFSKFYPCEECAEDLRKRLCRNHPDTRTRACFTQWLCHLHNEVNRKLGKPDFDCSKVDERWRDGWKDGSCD
# T cruzi inh – T. cruzi replication inhibition; T. cruzi beta-gal in NIH3T3, luminescence, 90 h; hit rate 1.4% among 300,000; AID 1885; inhibition, % (test concentration not listed);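 active means mean inhibition across valid replicates above about 55%, limit read from the data; inconclusive means mean below that limit but half or more replicates reach it; inactive means mean below it, under half of replicates reach it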;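 further: signal also drops with host cell toxicity which is not excluded here; 0% = plate median of DMSO wells and 100% = zero luminescence signal; higher percent means less beta-gal luminescence so fewer parasites; stock transfer was 50 nL into about 50 µL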
# Ecoli rRNA inh – inhibits bacterial ribosomal RNA function over humanized ribosomes; GFP signal change (wild-type ribosome), % (concentration not given with the values); hit rate 1.6% among 350,000; AID 720706; E. coli WT GFP vs humanized-ribosome RFP mutants, fluorescence, 24 h; active compounds read low; DMSO median 0, no signal -100;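 active means significant combined selectivity score with lowered wild-type GFP, culture density cut under 30%, mutant RFP and density less affected; inactive means any of these conditions unmet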; further: one replicate is shown; some compounds called inactive have numbers as strong as hits
# MLL AF4-AF9 inh – inhibitors of human MLL-AF4/AF9 interaction; hit rate 0.47% among 350,000; P42568; AlphaScreen, biotin-AF4 peptide binding to FLAG-AF9; inhibition, % at 10 µM;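 active means every replicate reaching a set inhibition limit, whatever the replicate mean, cut at about 25% in these data; inconclusive means mean inhibition reaches that limit but some replicates miss it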;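 further: 0% = plate neutral control median and 100% = total signal loss; the record names both 10 and 1 µM as test concentration; the first replicate is given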
# Target sequence (P42568 whole entry, looked up): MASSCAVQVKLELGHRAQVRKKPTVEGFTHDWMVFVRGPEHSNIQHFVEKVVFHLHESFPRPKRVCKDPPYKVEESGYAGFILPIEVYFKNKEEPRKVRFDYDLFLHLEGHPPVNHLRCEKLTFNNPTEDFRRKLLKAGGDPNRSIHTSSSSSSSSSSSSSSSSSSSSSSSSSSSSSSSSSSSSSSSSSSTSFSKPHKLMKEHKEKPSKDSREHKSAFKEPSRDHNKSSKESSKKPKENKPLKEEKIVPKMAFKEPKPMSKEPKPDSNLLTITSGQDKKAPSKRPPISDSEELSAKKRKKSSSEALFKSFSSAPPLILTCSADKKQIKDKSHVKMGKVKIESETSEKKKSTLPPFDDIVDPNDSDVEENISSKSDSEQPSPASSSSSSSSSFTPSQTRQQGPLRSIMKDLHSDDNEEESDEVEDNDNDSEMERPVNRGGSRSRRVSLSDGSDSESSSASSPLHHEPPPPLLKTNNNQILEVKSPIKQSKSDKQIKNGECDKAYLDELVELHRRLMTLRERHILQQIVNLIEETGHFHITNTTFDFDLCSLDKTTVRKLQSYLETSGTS
# RanGTP-Impb inh – inhibitors of RanGTP-importin-beta interaction, primary screen, biochemical, FRET, CFP-Ran, YFP-importin-beta, homogeneous. cell-free CFP-Ran/YFP-importin-beta FRET ratio. hit rate 1.1% among 300,000. AID 2216. inhibition, % (no concentration beside the values);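 active means most replicates above 15%; inconclusive means exactly half above 15%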;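 further: 0% = DMSO wells and 100% = Ran loaded with GDP instead of GTP; wells of about 40 µL received 100 nL stock; the first replicate is given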
# Calb FLC – C. albicans growth modulation with fluconazole. C. albicans CaCi-2 (fluconazole-resistant clinical isolate) + fluconazole, Alamar Blue growth, 48 h. growth inhibition, % (no concentration beside the values). hit rate 0.57% among 300,000. AID 1979;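 active means most replicates above 75%; inconclusive means exactly half above 75%; inactive means most below 75%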;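 further: all wells also contain fluconazole at 8 µg/ml as a sub-toxic cotreatment; 0% = median of DMSO wells and 100% = median of geldanamycin control wells; wells of about 8 µL received 7.5 nL stock; the first replicate is given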
# FGF22 binding – shifts melting point of recombinant human FGF22 | calls only at 9.99 µM | recombinant FGF22 thermal shift, SYPRO orange fluorescence; percent of sucrose octasulfate shift, DMSO zero | Q9HCT0 | hit rate 1.5% among 340,000 | AID 651658;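 active means melting point raised past a set limit in the mean and every replicate; inconclusive means no clear call; three in four hits are not shown here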
# Target sequence (Q9HCT0 whole entry, looked up): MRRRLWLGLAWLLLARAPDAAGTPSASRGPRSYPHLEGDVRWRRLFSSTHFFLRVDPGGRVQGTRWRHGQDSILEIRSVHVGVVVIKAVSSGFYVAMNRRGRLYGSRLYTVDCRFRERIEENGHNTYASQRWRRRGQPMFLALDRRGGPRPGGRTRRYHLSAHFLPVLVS
# Ecoli rRNA inh OD600 – further read-out of Ecoli rRNA inh, marked with its call; OD600 change, %; measured here: OD600 growth;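 optical density of the mix in the first replicate; 0 = DMSO median and -100 = no signal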
# Ecoli rRNA inh RFP – recorded beside Ecoli rRNA inh, whose call it bears; RFP signal change, %; measured here: RFP humanized mutant strains;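 first replicate; 0 = DMSO median and -100 = no signal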
# * = called active by the depositor; i = inactive; ? = inconclusive; · = no result given. This is a subset, so the mix of outcomes need not match the whole.
no.	canonical_smiles	Beta cell apopt	ALR inh	T cruzi inh	Ecoli rRNA inh	Ecoli rRNA inh OD600	Ecoli rRNA inh RFP	MLL AF4-AF9 inh	RanGTP-Impb inh	Calb FLC	FGF22 binding
1	O=C(N/N=C/c1ccccc1OC(F)F)c1cc(-c2ccncc2)nc2ccccc12	1.4	-0.6	1.9	5.8	5.5	0.7	-3.0	-1.4	-5.7	i
2	CCCCOc1ccc(C(=O)OCC(=O)c2c(N)n(C)c(=O)n(C)c2=O)cc1	-10.8	2.2	·	-2.1	-0.5	-0.2	-0.2	·	·	i
3	O=C(NCc1ccccc1)C(C(=O)c1ccc(F)cc1)n1ccccc1=O (stereo not drawn)	-4.9	-13.8	-0.6	·	·	·	·	10.1	-8.7	·
4	Cc1ccc(NC(=S)NCc2ccc(S(N)(=O)=O)cc2)cc1Cl	-5.4	-4.5	-13.8	-34.0	-47.7	2.0	6.1	-0.6	-11.1	i
5	COc1ccc(C(=O)Cc2cc(OC)c(OC)cc2[N+](=O)[O-])cc1	-6.2	-16.1	0.0	·	·	·	·	?	4.6	·
6	COc1ccccc1NC(=O)C12CC3CC(C1)CC(c1ccc(C)cc1)(C3)C2	-3.5	3.9	7.7	·	·	·	·	-1.4	-12.6	·
7	CC(C)N1CCN(CCCc2ccccc2)CC1CCO (stereo not drawn)	·	·	-10.2	-1.9	2.6	-1.9	-0.1	-1.9	-8.5	i
8	COCCn1c(SCC(=O)c2c(N)n(C3CC3)c(=O)[nH]c2=O)nnc1-c1ccc(Cl)cc1	-2.1	1.8	·	-1.4	7.9	-2.9	-7.3	·	·	i
9	CN(C1CCCCC1)S(=O)(=O)c1cn(C)c(=O)n(C)c1=O	-0.6	3.7	·	3.7	7.1	-2.7	-2.7	·	·	i
10	O=C1CSC(=S)N1c1ccc(Cl)c(Cl)c1	-5.6	38.1	-5.8	-58.8	-80.3	-14.0	-1.4	5.2	-15.0	i
11	CC12CCC(C(=O)NC(c3ccccc3)c3ccccc3)(OC1=O)C2(C)C (stereo not drawn)	-1.9	-4.8	9.9	·	·	·	·	4.6	6.9	·
12	O=C(NCc1ccc(F)cc1)c1ccc2c(=O)n3c(nc2c1)CCCCC3	0.0	1.5	12.6	-18.5	-30.2	-2.9	0.9	3.8	8.7	i
13	CC(Oc1ccccc1)C(=O)Nc1nnc(S(=O)(=O)N2CCCCCC2)s1 (stereo not drawn)	0.9	·	-8.2	·	·	·	1.8	0.1	-4.3	i
14	O=C(c1ccc(C(=O)N2CCOCC2)s1)N1CCOCC1	-3.8	-0.3	9.6	·	·	·	·	-2.2	-0.8	·
15	NC(=O)c1ccsc1NC(=O)COC(=O)c1ccc(Cl)nc1	1.2	-1.3	-4.4	0.2	0.0	0.9	-12.1	4.8	15.1	i
16	COc1ccc(C(=O)NCc2ccc(C)cc2)cc1S(=O)(=O)N1CCCc2ccccc21	27.1	-2.6	39.1	·	·	·	·	2.7	5.8	·
17	CCOc1ccccc1CNc1nc2nc3c(c(=O)n2[nH]1)CCC3	0.2	4.5	-5.6	·	·	·	·	1.5	1.6	·
18	Cc1ccccc1Cn1nnc2c1C(=O)c1ccccc1C2=O	·	-67.4	52.9	·	·	·	·	-1.2	-16.0	·
19	O=C(O)/C(=C\c1ccccc1OC(F)F)c1ccc(-c2ccccc2)cc1	-6.0	15.0	-5.2	-36.5	-44.5	-6.0	1.0	0.4	27.0	i
20	O=C(c1ccc(COCC(F)(F)F)cc1)N1CCN(c2ccccn2)CC1	1.5	-1.9	-7.3	-7.7	-8.6	2.8	-1.1	1.7	15.0	i
21	OCC1(CCOc2ccccc2)CCN(Cc2cn[nH]c2-c2ccccc2)CC1	7.5	-7.5	4.0	15.6	9.5	4.1	3.5	2.3	10.9	i
22	CC(C)CCN1CCN(Cc2ccc(Oc3ncccn3)cc2)CC1CCO (stereo not drawn)	-4.3	-9.4	11.4	11.8	11.6	-3.1	4.2	?	-10.6	i
23	CCCCN(C)C(=O)Cn1nc(Cc2ccncc2)c2ccccc2c1=O	-8.2	-29.5	-1.4	2.5	-15.4	-1.7	3.9	7.3	-4.6	i
24	Cc1ccc(C)c(C(=O)N2CCC(n3nccc3NC(=O)C3CC3)CC2)c1	-6.7	0.9	-7.2	5.7	12.6	2.5	-2.4	1.0	-6.4	i
25	Cc1ccc(Oc2nnc(-c3ccc(C)cc3)c3ccccc23)cc1	4.9	-8.6	16.9	-1.0	2.5	-5.5	5.3	-3.3	-2.0	i
26	Cc1ccn2cc(CCNS(=O)(=O)c3ccc4c(c3)OCCO4)nc2c1	0.7	·	-5.1	1.3	0.7	-5.0	-2.4	?	-2.8	i
27	O=[N+]([O-])c1ccc(N2CCOCC2)cc1O	-3.1	-4.0	-5.4	-10.2	4.3	-3.0	23.9	3.9	1.5	i
28	Cc1ccc(C(c2nnnn2C2CCCCC2)N2CCN3CCCC3C2)cc1 (stereo not drawn)	-12.6	0.2	-6.3	·	·	·	·	-4.0	-20.2	·
29	Cc1ccsc1C=C1C(=O)c2ccccc2C1=O	0.8	-3.9	10.3	·	·	·	·	1.7	5.1	·
30	COC(=O)c1[nH]c2ccccc2c1NC(=O)CN1CCN(Cc2ccc3c(c2)OCO3)CC1	-6.6	-9.6	20.0	-1.6	-7.1	2.1	·	-1.4	-7.1	·
31	COc1ccc(OC)c2[nH]c(C(=O)N3CCC(C(=O)O)CC3)cc12	8.1	11.1	-15.3	9.8	8.5	1.5	-0.8	0.2	-3.5	i
32	Cc1ccc(S(=O)(=O)N(C)Cc2ccc(-c3nnc4n3CCC4)cc2)cc1	-1.1	-7.9	6.7	·	·	·	·	8.3	0.6	·
33	CC(CC(=O)Nc1ncc([N+](=O)[O-])s1)c1ccccc1 (stereo not drawn)	40.7	·	·	-48.2	-76.7	-10.1	1.5	·	92.2*	i
34	Cc1ccc(NC(=O)CSCC(=O)N(C)CC(=O)Nc2cccc(F)c2)cc1	·	98.8*	-3.0	-51.3	-77.4	-13.9	0.3	5.4	2.4	i
35	COc1ccccc1CNC(=O)CSc1ccc(Br)cc1	-1.4	·	-7.4	·	·	·	·	2.6	1.5	·
36	CCOc1cc(CNc2ccc(S(N)(=O)=O)cc2)ccc1OCC(=O)NC(C)(C)C	-2.0	-4.9	-5.8	-3.3	-7.3	1.0	-0.5	-1.9	-16.2	i
37	O=C(CN1CCc2cc3c(cc2C1)OCCCO3)Nc1cccc(Br)c1	-3.5	0.8	4.5	-0.9	-36.5	-16.5	0.8	-0.5	-21.5	i
38	Cc1nc2scc(-c3ccccc3)c2c(=O)n1/N=C/c1ccco1	-3.5	-3.6	5.7	·	·	·	·	0.8	-0.7	·
39	N#Cc1cccc(Nc2c3c(nc4ccccc24)CCCC3)c1	10.5	-9.8	9.4	-3.6	-1.5	-0.8	-0.7	-3.2	-16.6	i
40	Cc1ccccc1NC(=O)OCc1cn(-c2ccc(Cl)cc2)nn1	-5.8	-11.5	4.2	·	·	·	·	7.0	-32.7	·
41	O=C(Oc1ccc(Br)cc1C(=O)/C=C/c1ccccc1F)c1ccco1	12.0	0.3	5.1	-8.8	-3.1	7.3	2.1	4.2	-1.2	i
42	CCCCn1c(N)c(N(CCOC)C(=O)c2cc(S(=O)(=O)N3CCCCC3)ccc2Cl)c(=O)[nH]c1=O	-2.9	-3.8	10.0	4.6	8.8	-1.8	-2.5	-2.7	?	i
43	NC(=O)C1CCN(CC(O)COCc2ccccc2Cl)CC1 (stereo not drawn)	·	-2.8	-0.7	1.1	4.1	-1.7	-1.6	1.8	-1.6	i
44	CCCCc1ccc(NC2=NCC(=O)N2CCc2ccccc2)cc1	7.5	-0.3	5.2	-59.1	-80.0	-28.5	-0.7	0.8	-21.2	i
45	CC(C)(C)NCC(O)COc1ccccc1C1CCCC1 (stereo not drawn)	3.4	-4.4	·	·	·	·	-2.3	·	·	i
46	CCN1C(=O)/C(=C/C=C2/SCCN2C)SC1=S	14.8	·	25.0	·	·	·	·	-48.4	-2.5	·
47	CCOc1ccc(NC(=O)CSc2nnc(Cc3cccn3C)n2-c2ccc(OC)cc2)cc1	5.7	6.9	9.6	-4.6	-8.0	4.4	11.1	?	-17.6	i
48	CCc1ccc(Nc2n[n+](-c3ccccc3)c(-c3cccc(C)c3)s2)cc1	69.1	·	·	-1.2	-4.7	-4.4	8.3	·	·	i

# A draw from above in order of length of the SMILES, lowest first:
no.	canonical_smiles	Beta cell apopt	ALR inh	T cruzi inh	Ecoli rRNA inh	Ecoli rRNA inh OD600	Ecoli rRNA inh RFP	MLL AF4-AF9 inh	RanGTP-Impb inh	Calb FLC	FGF22 binding
46	CCN1C(=O)/C(=C/C=C2/SCCN2C)SC1=S	14.8	·	25.0	·	·	·	·	-48.4	-2.5	·
38	Cc1nc2scc(-c3ccccc3)c2c(=O)n1/N=C/c1ccco1	-3.5	-3.6	5.7	·	·	·	·	0.8	-0.7	·
41	O=C(Oc1ccc(Br)cc1C(=O)/C=C/c1ccccc1F)c1ccco1	12.0	0.3	5.1	-8.8	-3.1	7.3	2.1	4.2	-1.2	i
48	CCc1ccc(Nc2n[n+](-c3ccccc3)c(-c3cccc(C)c3)s2)cc1	69.1	·	·	-1.2	-4.7	-4.4	8.3	·	·	i

# Additional structures:
no.	canonical_smiles	Beta cell apopt	ALR inh	T cruzi inh	Ecoli rRNA inh	Ecoli rRNA inh OD600	Ecoli rRNA inh RFP	MLL AF4-AF9 inh	RanGTP-Impb inh	Calb FLC	FGF22 binding
49	CCOC(=O)C1CSC(CC(=O)Nc2ccc(Cl)c(Cl)c2)C(=O)N1 (stereo not drawn)	-5.8	-2.5	-20.3	·	·	·	·	3.3	-25.8	·
50	CC[C@]12c3[nH]c4ccccc4c3CCN1C(=O)C(CC(=O)NCCCOC)C[C@@H]2C(=O)N1CCN(C(=O)c2ccco2)CC1 (stereo partly drawn)	-5.7	·	·	22.3	12.8	3.8	-1.3	·	·	i
51	CC(C)CNC(=S)N1CCN(Cc2ccc3c(c2)OCO3)CC1	3.0	-0.2	12.1	7.7	3.0	1.2	0.2	3.6	-28.5	i
52	O=C(NCc1cccnc1)C1c2ccccc2C(=O)N1C1CCCC1 (stereo not drawn)	·	4.4	-14.1	9.5	13.6	3.8	0.3	-2.0	-4.2	i
53	COc1ccccc1C(=O)NC(CCSC)C(=O)NCc1ccncc1 (stereo not drawn)	-4.6	·	·	3.0	4.4	-2.4	3.2	·	·	i
54	COc1ccc(OC)c(C(O)c2coc3ccc(O)c(CN(C)C)c23)c1 (stereo not drawn)	-4.6	19.1	-5.7	·	·	·	·	-10.0	10.0	·
55	Cc1ncsc1C(=O)NCc1ccc(N2CCCC2=O)cc1	-4.5	4.1	-17.2	·	·	·	·	-0.6	3.6	·
56	Cc1cccc(NC(=O)CSC2=NN3CCCC(=O)N=C3S2)c1C	·	-3.1	8.0	5.7	-0.1	1.5	-0.1	5.1	-6.4	i
